Screening data deposited in PubChem BioAssay by Broad Institute.
Vaccinia inh = Vaccinia orthopox stage-specific inhibition. AID 1053133. Vaccinia-infected cells, mCherry/Venus stage reporter fluorescence; stronger effect = lower value; some inactives read as strong as hits. activity change (mCherry), % (concentration not given with the values). actives 0.01% (n = 89,000);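 active = mCherry past -33% and 40 or more points under the early reporter, replicates agreeing; inconclusive = past -33% without that gap or agreement; tested in A549 cells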;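 also: scaled between vehicle wells and reference inhibitor wells; 23 nL library stock went into each well; one replicate is shown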
Vaccinia inh Venus = second read-out of Vaccinia inh, no call of its own (marks repeat the call); activity change (Venus), %; measured here: Venus reporter, other viral stage;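 negative = less Venus signal; first of two replicates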
* hit, by the source's call; u = inconclusive; x = not tested or not shown; & = joins results of further samples. This is a subset; rates above refer to the full screens.

Results follow in this order: Vaccinia inh Venus, Vaccinia inh
CN(C)C(=O)C[C@@H]1C=C[C@@H](NC(=O)NC2CCCCC2)[C@@H](CO)O1
    7, -1
C[C@@H]1CN([C@H](C)CO)C(=O)c2cccc(NC(=O)c3nc4ccccc4s3)c2O[C@@H]1CN(C)CC1CCCCC1
    -24, -26
O=C(Nc1ccc(F)cc1)N[C@H]1CC[C@@H](CCn2cc(-c3ccccc3F)nn2)O[C@H]1CO
    -19, -19
C[C@@H]1CN([C@H](C)CO)C(=O)c2cc(NC(=O)Nc3cccc4ccccc34)ccc2O[C@@H]1CN(C)Cc1ccc(C(F)(F)F)cc1
    -8, -24
CO[C@H]1CN(C)C(=O)c2cc(NC(=O)C3CC3)ccc2OC[C@H](C)N(CC2CCOCC2)C[C@H]1C
    25, 15
Cc1noc(C)c1S(=O)(=O)Nc1ccc2c(c1)C(=O)N([C@@H](C)CO)C[C@H](C)[C@H](CN(C)C(=O)c1ccncc1)OCCCC[C@H](C)O2
    8, 9
C[C@H]1CN([C@@H](C)CO)C(=O)Cc2cc(NC(=O)Nc3ccc4c(c3)OCO4)ccc2O[C@@H]1CN(C)Cc1ccc(C(F)(F)F)cc1
    x, u
Cc1noc(C)c1NC(=O)NCC[C@H]1CC[C@H](NC(=O)c2ccncc2)[C@H](CO)O1
    10, 4
C/C=C/c1ccc([C@H]2[C@H]3CN(C(=O)Cc4ccncc4)CCCCN3[C@H]2CO)cc1
    1, 2
COCC(=O)Nc1ccc2c(c1)C(=O)N(C)C[C@@H](OC)[C@@H](C)CN(CC1CCCCC1)[C@@H](C)CO2
    14, -11
CCCC#Cc1ccc([C@H]2[C@H]3CN(S(=O)(=O)c4ccccc4C)CCCCN3[C@H]2CO)cc1
    x, u
C[C@H]1CN([C@@H](C)CO)C(=O)c2cc(C3=CCCC3)cnc2O[C@@H]1CN(C)Cc1ccc(C(=O)O)cc1
    6, 19
O=C(C[C@@H]1C=C[C@H](NC(=O)CC2CC2)[C@H](CO)O1)NCc1ccc(-c2ccccc2)cc1
    1, -7
CO[C@H]1CN(C)C(=O)c2cc(NC(=O)C3CC3)ccc2OC[C@H](C)N(C(=O)c2ccncc2)C[C@@H]1C
    3, 18
COc1ccc(S(=O)(=O)Nc2ccc3c(c2)[C@@H]2C[C@H](CC(=O)N(C)C)O[C@H](CO)[C@@H]2O3)cc1
    6, 8
C[C@@H]1CN([C@@H](C)CO)C(=O)c2cc(NC(=O)Nc3ccc(C(F)(F)F)cc3)ccc2O[C@@H]1CN(C)Cc1ccncc1
    -19, -32
COc1ccc(-c2ccc3n(c2=O)C[C@H]2[C@H](CO)[C@@H](C(=O)N(C)C)[C@@H]3N2Cc2cncnc2)cc1
    1, 6
C[C@@H]1CN([C@@H](C)CO)S(=O)(=O)c2ccc(/C=C/c3ccccc3)cc2O[C@H]1CN(C)Cc1ccccc1
    x, u
CCN(C[C@@H]1[C@@H](c2ccccc2)[C@H](CO)N1Cc1cccnc1)C(C)=O
    -4, 6
CC(=O)N(C)C[C@@H]1Oc2cc(-c3cccc(C#N)c3)ccc2S(=O)(=O)N([C@H](C)CO)C[C@@H]1C
    16, 26
CC(C)NC(=O)Nc1ccc2c(c1)C(=O)N([C@@H](C)CO)C[C@H](C)[C@H](CN(C)Cc1ccc(Cl)c(Cl)c1)OCCCC[C@@H](C)O2
    x, u
CCS(=O)(=O)N1CC(=O)N2[C@H](C1)[C@@H](c1ccc(C#CC3CCCCC3)cc1)[C@@H]2CO
    x, u
C[C@H](CO)N1C[C@H](C)[C@@H](CN(C)C(=O)Nc2cccc3ccccc23)Oc2ccc(NC(=O)CCN3CCOCC3)cc2CC1=O
    25, 26
COc1ccc2c3c([nH]c2c1)[C@H](CO)N(C(=O)C1CCC1)CC31CN(Cc2cccc(F)c2)C1
    -32, -32
O=C(C[C@H]1C[C@@H]2c3cc(NS(=O)(=O)c4ccccc4)ccc3O[C@@H]2[C@@H](CO)O1)NC1CCCC1
    2, 2
CCc1csc(N2[C@H](C#N)[C@H](c3ccc(-c4cccc(F)c4)cc3)[C@@H]2CO)n1
    -7, -11
CO[C@H]1CN(C)C(=O)c2cc(NC(=O)C3CC3)ccc2OC[C@H](C)N(Cc2cccnc2)C[C@H]1C
    -4, -2
Cc1noc(C)c1S(=O)(=O)N(C)C[C@@H]1OCCCC[C@H](C)Oc2ccc(NC(=O)Nc3ccccc3)cc2C(=O)N([C@@H](C)CO)C[C@H]1C
    4, -9
C[C@@H]1CCCCO[C@H](CN(C)Cc2ccc(Cl)c(Cl)c2)[C@@H](C)CN([C@@H](C)CO)C(=O)c2cc(NC(=O)NC3CCCCC3)ccc2O1
    -16, -16
COc1ccccc1-c1ccc2c(c1)O[C@@H](CN(C)S(=O)(=O)c1ccc(C)cc1)[C@H](C)CN([C@@H](C)CO)S2(=O)=O
    -9, -10
C[C@H]1CN([C@@H](C)CO)C(=O)c2cc(NC(=O)Nc3ccc4c(c3)OCO4)ccc2O[C@H]1CN(C)C(=O)Nc1cccc2ccccc12
    14, 21
O=C(Cc1ccccc1)N1C[C@@H]2[C@H](c3ccccc31)[C@@H](CO)N2S(=O)(=O)c1ccccc1
    -11, -4
C[C@@H]1CN([C@H](C)CO)C(=O)c2cc(NC(=O)CCC(F)(F)F)ccc2O[C@@H](C)CCCCO[C@@H]1CN(C)S(=O)(=O)c1cccs1
    x, u
COc1ccc(NC(=O)N(C)C[C@H]2OCCCC[C@@H](C)Oc3ccc(NC(=O)c4ccccc4)cc3C(=O)N([C@H](C)CO)C[C@H]2C)cc1
    3, -19
COCC(=O)Nc1ccc2c(c1)OC[C@@H](C)N(Cc1ccccn1)C[C@@H](C)[C@@H](OC)CN(C)C2=O
    6, 11
O=C(C[C@@H]1C[C@@H]2c3cc(NC(=O)C4CCC4)ccc3O[C@@H]2[C@H](CO)O1)NCc1ccccc1
    2, 12
COc1cccc(NC(=O)N(C)C[C@H]2OCc3ccccc3-c3c(n(C)c4ccccc34)C(=O)N([C@H](C)CO)C[C@H]2C)c1
    -19, -31
CCCN(C)C[C@H]1OCCCC[C@@H](C)Oc2ccc(NC(=O)C3CCCCC3)cc2C(=O)N([C@H](C)CO)C[C@H]1C
    -28, -30
C[C@H]1CN([C@@H](C)CO)C(=O)c2cccc(NC(=O)c3ccncc3)c2O[C@@H]1CN(C)C(=O)NC1CCCCC1
    10, 13
C[C@H](NC(=O)C[C@@H]1CC[C@H]2[C@@H](COC[C@@H](O)CN2C(=O)Nc2cccc(F)c2)O1)c1ccccc1
    -5, -4
CCS(=O)(=O)N[C@H]1C=C[C@@H](CC(=O)O)O[C@@H]1CO
    7, 9
CN(C)c1ccc2c(c1)[C@@H]1C[C@H](CC(=O)NCC3CC3)O[C@H](CO)[C@@H]1O2
    15, 4
Cc1ccc(S(=O)(=O)Nc2cccc3c2O[C@H](CN(C)S(=O)(=O)c2ccc(Cl)cc2)[C@@H](C)CN([C@@H](C)CO)C3=O)cc1
    12, 10
C[C@@H](NC(=O)[C@H]1[C@H](CO)[C@H]2Cn3c(cccc3=O)[C@H]2N1CCC(F)(F)F)c1ccccc1
    8, 6
C[C@H]1CN([C@@H](C)CO)C(=O)Cc2cc(NC(=O)Nc3ccc4c(c3)OCO4)ccc2O[C@H]1CN(C)S(=O)(=O)c1ccc(F)cc1
    -21, -28
C[C@H]1CN([C@@H](C)CO)C(=O)CCCn2cc(nn2)CO[C@H]1CN(C)Cc1ccc(-c2ccccc2)cc1
    -12, -8
COc1cccc(-c2cccc(-c3nc(C(=O)N(C)C)cc4c3[C@@H](CCO)N([S@](=O)C(C)(C)C)C4)c2)c1
    x, u
COc1ccc(CNC(=O)C[C@@H]2C=C[C@H](NC(=O)c3ccc4c(c3)OCO4)[C@H](CO)O2)cc1
    4, 6
O=C(C[C@H]1CC[C@@H](NC(=O)Nc2cc(F)ccc2F)[C@H](CO)O1)NCc1ccncn1
    19, 16
CCCNC(=O)C[C@@H]1C[C@H]2c3cc(NC(=O)CC4CC4)ccc3O[C@H]2[C@@H](CO)O1
    14, 13
C[C@H](CO)N1C[C@H](C)[C@@H](CN(C)C(=O)Nc2ccc(F)cc2)OCCCC[C@H](C)Oc2ccc(NC(=O)c3ccccc3)cc2C1=O
    -7, -15
COc1ccc(S(=O)(=O)N(C)C[C@H]2OCCCC[C@H](C)Oc3ccc(NS(=O)(=O)c4c(C)noc4C)cc3C(=O)N([C@H](C)CO)C[C@@H]2C)cc1
    x, u
C[C@H](CO)N1C[C@H](C)[C@@H](CN(C)Cc2ccccc2)Oc2cc(C#CCN(C)C)ccc2S1(=O)=O
    x, u
C[C@@H]1CN([C@H](C)CO)C(=O)c2cccc(NC(=O)C3CCCCC3)c2O[C@H]1CN(C)Cc1ccncc1
    5, -1
C[C@H](CO)N1C[C@H](C)[C@@H](CN(C)C(=O)Nc2ccccc2)Oc2ncc(C3=CCCCC3)cc2C1=O
    -3, -16
O=C(C1CC1)N1CC2(C1)[C@@H](c1ccccc1)[C@@H](CO)N2CCC(F)(F)F
    3, 10
COc1cccc(C(=O)Nc2ccc3c(c2)C(=O)N(C)C[C@H](OC)[C@@H](C)CN[C@H](C)CO3)c1
    -7, -7
O=C(c1ccncc1)N1C[C@H]2[C@@H](c3ccccc31)[C@H](CO)N2C(=O)Nc1ccccc1Cl
    11, 15
C[C@H](CO)N1C[C@H](C)[C@@H](CN(C)C(=O)C2CCCCC2)OCCCC[C@H](C)Oc2ccc(NC(=O)Cc3ccccc3)cc2C1=O
    -16, -15
CC=Cc1ccc2n(c1=O)C[C@H]1[C@H](CO)[C@@H](C(=O)NCC)[C@@H]2N1C(=O)C1CC1 (mixture of isomers)
    12, 24

As a working copy, 7 of the compounds above.
Results follow in this order: Vaccinia inh Venus, Vaccinia inh
C[C@H]1CN([C@@H](C)CO)C(=O)c2cc(NC(=O)Nc3ccc4c(c3)OCO4)ccc2O[C@H]1CN(C)C(=O)Nc1cccc2ccccc12
    14, 21
O=C(Cc1ccccc1)N1C[C@@H]2[C@H](c3ccccc31)[C@@H](CO)N2S(=O)(=O)c1ccccc1
    -11, -4
C[C@@H]1CN([C@H](C)CO)C(=O)c2cc(NC(=O)CCC(F)(F)F)ccc2O[C@@H](C)CCCCO[C@@H]1CN(C)S(=O)(=O)c1cccs1
    x, u
COc1ccc(NC(=O)N(C)C[C@H]2OCCCC[C@@H](C)Oc3ccc(NC(=O)c4ccccc4)cc3C(=O)N([C@H](C)CO)C[C@H]2C)cc1
    3, -19
COCC(=O)Nc1ccc2c(c1)OC[C@@H](C)N(Cc1ccccn1)C[C@@H](C)[C@@H](OC)CN(C)C2=O
    6, 11
O=C(C[C@@H]1C[C@@H]2c3cc(NC(=O)C4CCC4)ccc3O[C@@H]2[C@H](CO)O1)NCc1ccccc1
    2, 12
COc1cccc(NC(=O)N(C)C[C@H]2OCc3ccccc3-c3c(n(C)c4ccccc34)C(=O)N([C@H](C)CO)C[C@H]2C)c1
    -19, -31

Going on with the list:
Results follow in this order: Vaccinia inh Venus, Vaccinia inh
COc1ccc(S(=O)(=O)N(C)C[C@@H]2Oc3ccc(N(C)C)cc3CC(=O)N([C@H](C)CO)C[C@@H]2C)cc1
    -13, -15
CCS(=O)(=O)N1[C@H](C#N)[C@@H](c2ccc(C#Cc3ccccc3F)cc2)[C@H]1CO
    -12, -3
C[C@@H]1CN([C@@H](C)CO)S(=O)(=O)c2ccc(C#C[C@@H](C)O)cc2O[C@@H]1CN(C)Cc1ccncc1
    7, 2
CC(C)NC(=O)N(C)C[C@H]1Oc2c(NS(C)(=O)=O)cccc2C(=O)N([C@H](C)CO)C[C@H]1C
    7, 9
CN(C)C(=O)c1cccc(-c2ccccc2[C@H]2[C@@H](C#N)N(C(=O)C3CC3)[C@H]2CO)c1
    x, u
O=C(C[C@H]1CC[C@@H]2[C@H](COC[C@H](O)CN2S(=O)(=O)c2ccccc2)O1)N1CCc2ccccc2C1
    1, 4
COc1cccc(NC(=O)N(C)C[C@@H]2OCc3ccccc3-c3c(n(C)c4ccccc34)C(=O)N([C@@H](C)CO)C[C@H]2C)c1
    x, u
C[C@@H]1CN([C@H](C)CO)C(=O)c2cc(NC(=O)c3ccncc3)ccc2O[C@@H]1CN(C)Cc1ccc(C(F)(F)F)cc1
    -20, 15
C[C@H](CO)N1C[C@H](C)[C@H](CN(C)S(=O)(=O)c2ccccc2)Oc2ncc(Br)cc2C1=O
    11&10, 22&15
COc1ccc(NC(=O)N(C)C[C@@H]2Oc3ccc(NC(=O)Nc4cccc5ccccc45)cc3CC(=O)N([C@H](C)CO)C[C@H]2C)cc1
    14, 5
N#C[C@@H]1[C@H](c2ccc(C3=CCCC3)cc2)[C@H](CO)N1C(=O)NC1CCCCC1
    -6, -19
CCNC(=O)C[C@H]1CC[C@H]2[C@H](COc3ccc(NC(=O)Nc4ccc(Cl)cc4)cc3C(=O)N2C)O1
    -15, -9
COCC(=O)N1CC2(C1)[C@@H](c1ccc(-c3ccc(F)cc3)cc1)[C@H](CO)N2C(C)=O
    7, 13
Cc1noc(C)c1NC(=O)NCC[C@@H]1CC[C@H](NC(=O)Nc2cccc(F)c2)[C@@H](CO)O1
    -13, -8
CN1c2ccc(-c3cccc(C#N)c3)cc2[C@H]2[C@H](CCN2S(=O)(=O)c2ccccc2)[C@H]1CO
    x, u
C[C@@H]1CN([C@@H](C)CO)C(=O)CCCn2cc(nn2)CO[C@H]1CN(C)S(=O)(=O)c1ccc(Oc2ccccc2)cc1
    5&-2, 9&0
O=C(O)[C@@H]1[C@@H](CO)[C@@H]2Cn3c(ccc(-c4cccnc4)c3=O)[C@H]1N2S(=O)(=O)c1ccccc1F
    -1, 1
Cc1ccc(S(=O)(=O)N(C)C[C@@H]2OCCCC[C@H](C)Oc3ccc(NS(C)(=O)=O)cc3C(=O)N([C@@H](C)CO)C[C@H]2C)cc1
    1, 13
C[C@H](CO)N1C[C@H](C)[C@H](CN(C)S(C)(=O)=O)OCCCC[C@H](C)Oc2ccc(NS(=O)(=O)c3cccs3)cc2C1=O
    4, 7
